Compound activity from PubChem BioAssay.
LANA-H2A inh = blockers of LANA interaction with H2A/H2B – biochemical, FP readout, HTS, primary screen. AID 2629, 2010. 320,000 compounds, 0.6% hits. cell-free LANA-H2A/H2B peptide, fluorescence polarization. inhibition, % (concentration not given with the values); in the data active = inhibition mostly above about 10%, no sharp cut-off; inactive = mostly below about 6.7%;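 also: stock transfer was 7.5 nL into about 10 µL; 0% = median of vehicle wells and 100% = median of positive control wells; one replicate is shown; the record names a cut of 25% in any replicate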
RanGTP-Impb inh = inhibitors of RanGTP-importin-beta interaction, primary screen, biochemical, FRET, CFP-Ran, YFP-importin-beta, homogeneous. Ran GTPase (GTP-bound) - importin-beta complex. cell-free CFP-Ran/YFP-importin-beta FRET ratio. inhibition, % (no concentration beside the values). 300,000 compounds, 1.1% hits;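 active = most replicates above 15%; inconclusive = exactly half above 15%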;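 also: 0% = DMSO wells and 100% = Ran loaded with GDP instead of GTP; wells of about 40 µL received 100 nL stock; the first replicate is given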
ALR H2O2 inh = inhibitors of human ALR sulfhydryl oxidase, primary screen, biochemical, H2O2 detection, HRP-luminol luminescence, single point. purified ALR, DTT oxidation. inhibition, % (concentration not given with the values). 290,000 compounds, 3.8% hits;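 active = mean and each replicate at 75% or more; inconclusive = only one of the two met; inactive = neither met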;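 also: stock transfer was 7.5 nL into about 7.5 µL; 0% = neutral wells and 100% = wells with inactivated enzyme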
Target sequence (P55789 whole entry, looked up): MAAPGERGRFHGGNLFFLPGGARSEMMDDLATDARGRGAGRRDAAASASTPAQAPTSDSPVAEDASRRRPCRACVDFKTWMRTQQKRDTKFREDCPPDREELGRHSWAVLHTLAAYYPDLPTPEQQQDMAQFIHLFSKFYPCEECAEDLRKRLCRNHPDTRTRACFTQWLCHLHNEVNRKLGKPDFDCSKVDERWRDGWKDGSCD
Calb FLC = C. albicans growth inhibition with fluconazole, primary screen, CaCi-2 strain, Alamar Blue fluorescence. growth inhibition, % (test concentration not listed). C. albicans CaCi-2 (fluconazole-resistant clinical isolate) + fluconazole, 48 h. 300,000 compounds, 0.57% hits. AID 1979, 2009;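 active = most replicates above 75%; inconclusive = exactly half above 75%; inactive = most below 75%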;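 also: all wells also contain fluconazole at 8 µg/ml as a sub-toxic cotreatment; 0% = median of DMSO wells and 100% = median of geldanamycin control wells; wells of about 8 µL received 7.5 nL stock; the first replicate is given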
B2AR ag = beta2AR agonists driving receptor internalization, primary screen, cell-based, FAP fluorogen, flow cytometry; Beta-2 adrenergic receptor (Homo sapiens), P07550; Am2.2-beta2AR cells; reference of the scale not given here; response, % (concentration not given with the values); 340,000 compounds, 0.43% hits; AID 504454, 2011;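 active = response above a set limit, near 3 SD of response in nonfluorescent compounds, cut at about 42% in these data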;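 also: stock transfer was 100 nL into about 11 µL; a reference agonist was the positive control; negative values mostly stem from fluorescent compounds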
Target sequence (P07550 whole entry, looked up): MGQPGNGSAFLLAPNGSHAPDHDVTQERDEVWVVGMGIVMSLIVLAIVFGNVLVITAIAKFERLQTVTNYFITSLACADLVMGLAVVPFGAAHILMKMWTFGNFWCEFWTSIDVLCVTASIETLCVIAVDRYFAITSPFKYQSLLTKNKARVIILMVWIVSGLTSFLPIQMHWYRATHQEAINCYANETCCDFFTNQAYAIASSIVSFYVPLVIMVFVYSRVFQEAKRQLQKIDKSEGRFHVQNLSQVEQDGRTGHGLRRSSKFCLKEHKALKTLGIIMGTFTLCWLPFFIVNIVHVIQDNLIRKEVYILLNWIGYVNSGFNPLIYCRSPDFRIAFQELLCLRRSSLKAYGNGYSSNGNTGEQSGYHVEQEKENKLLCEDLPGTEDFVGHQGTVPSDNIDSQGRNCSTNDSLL
HNF4A DNA FP = change in binding of human HNF4A to DNA, primary screen, biochemical, fluorescence polarization, FITC-DNA. Hepatocyte nuclear factor 4-alpha (Homo sapiens), P41235. 1 h. activity change, % at 10 µM. 360,000 compounds, 0.3% hits. AID 1224865, 2016; in the data active = activity change above about 30%, passing the limit was not always enough;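 also: controls were the assay level and a saturating level of protein; the project sought stronger binding though the title names inhibitors; some compounds called inactive have numbers as strong as hits; positive values seem to mean higher polarization but the record does not say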
Target sequence (P41235 whole entry, looked up): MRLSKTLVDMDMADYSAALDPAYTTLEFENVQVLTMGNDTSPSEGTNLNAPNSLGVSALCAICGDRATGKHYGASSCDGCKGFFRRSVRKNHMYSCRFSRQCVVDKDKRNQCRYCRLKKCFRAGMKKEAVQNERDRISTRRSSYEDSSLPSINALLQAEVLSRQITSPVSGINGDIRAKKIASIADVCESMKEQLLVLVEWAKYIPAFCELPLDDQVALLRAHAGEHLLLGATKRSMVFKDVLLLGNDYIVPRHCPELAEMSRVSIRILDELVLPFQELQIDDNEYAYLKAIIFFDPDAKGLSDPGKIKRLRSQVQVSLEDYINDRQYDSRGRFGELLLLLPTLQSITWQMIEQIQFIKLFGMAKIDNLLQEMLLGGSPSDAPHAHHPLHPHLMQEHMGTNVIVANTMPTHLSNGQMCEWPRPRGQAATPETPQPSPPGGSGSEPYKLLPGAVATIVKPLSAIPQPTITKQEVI
Vif TR-FRET = inhibitors of Vif binding to APOBEC3G peptide, primary screen, biochemical, TR-FRET, GST-Vif 1-94, biotin-A3G peptide, dose response retest (AID 1117319). one-dose inhibition, %; IC50 in µM for titrated hits. Virion infectivity factor (Human immunodeficiency virus type 1 group M subtype B (isolate …. 260,000 compounds, 0.57% hits. TR-FRET GST-Vif / biotin-A3G peptide binding; higher % means a stronger effect; test concentration not given here; strong numbers were not always called active;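 active = above the screen mean plus three standard deviations and confirmed in dose response; inconclusive = results disagree or hit not tested in dose response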;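 also: Vif residues 1-94 fused to GST binding biotinylated APOBEC3G peptide 110-148; 0% = full assay without inhibitor and 100% = GST in place of GST-Vif; retest series ran down from 100 µM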
Active calls of the source: *.

`Nc1cccn2c(-c3ccc(Cl)c(Cl)c3)cnc12` gave LANA-H2A inh -2.2, RanGTP-Impb inh 4.2, ALR H2O2 inh 48, Calb FLC 19, B2AR ag 14, HNF4A DNA FP 31 and Vif TR-FRET 18%.
`CCOC(=O)N1CCN(C(=O)c2nn(C)c3c2CSc2ccccc2-3)CC1` gave LANA-H2A inh -0.5, RanGTP-Impb inh 1.8, ALR H2O2 inh -3, Calb FLC -1, B2AR ag -3 and HNF4A DNA FP 2.1.
`O=C(O)c1cccc(-c2nnn(Cc3ccccc3)n2)c1` gave LANA-H2A inh -1.0, RanGTP-Impb inh -1.1, ALR H2O2 inh -6, Calb FLC 29, B2AR ag -1, HNF4A DNA FP -1.5 and Vif TR-FRET -6%.
`COc1cc(/C=N/Nc2ccnc(=O)[nH]2)ccc1O` gave LANA-H2A inh 3.5, RanGTP-Impb inh 0.6, ALR H2O2 inh 98*, Calb FLC 3, B2AR ag -2, HNF4A DNA FP 0.9 and Vif TR-FRET 5%.
O=C(O)c1ccc(NC(=O)c2ccc(COc3ccc(Cl)cc3)o2)cc1 was read as LANA-H2A inh 0.4, RanGTP-Impb inh -0.5, ALR H2O2 inh 3, Calb FLC 4, B2AR ag 19, HNF4A DNA FP -3.6 and Vif TR-FRET 2%.
NC1=NC(=O)/C(=C/c2ccccc2OCC(=O)Nc2ccc(F)cc2)S1 was read as LANA-H2A inh -0.3, ALR H2O2 inh 3, B2AR ag -4, HNF4A DNA FP 3.8 and Vif TR-FRET 0%.
For CC(C)(C)NC(=O)CC(CC(=O)O)c1ccccc1 (stereo not given) the results were LANA-H2A inh -0.4, RanGTP-Impb inh -2.0, ALR H2O2 inh -1, Calb FLC -7, B2AR ag 3, HNF4A DNA FP 2.9 and Vif TR-FRET 1%.
`O=C(COc1ccccc1)Nc1cc2c3c(c1)CC(=O)N3CCC2` gave LANA-H2A inh 1.3, RanGTP-Impb inh 0.8, ALR H2O2 inh -7, Calb FLC 0, B2AR ag -5, HNF4A DNA FP -0.4 and Vif TR-FRET 2%.
Screening CSCCNC(=O)Nc1c(-c2c(Cl)cccc2Cl)noc1C returned LANA-H2A inh -6.8, RanGTP-Impb inh -3.3, ALR H2O2 inh -9, Calb FLC 5, B2AR ag 0, HNF4A DNA FP -1.4 and Vif TR-FRET -4%.
For N#Cc1ccc(Oc2cccc3cccnc23)c([N+](=O)[O-])c1 the results were LANA-H2A inh -11, RanGTP-Impb inh 35*, ALR H2O2 inh -6, Calb FLC 2, B2AR ag 7, HNF4A DNA FP -0.2 and Vif TR-FRET -5%.
Screening Cc1ccc(-n2ncc3c(SCC(=O)Nc4cc(C)on4)ncnc32)c(C)c1 returned LANA-H2A inh 4.1, RanGTP-Impb inh -0.8, Calb FLC 2, B2AR ag -7, HNF4A DNA FP -0.7 and Vif TR-FRET 8%.
COc1cc(C(=O)NCC2CCCO2)ccc1OCc1ccccc1 (stereo not given) was read as LANA-H2A inh 3.7, RanGTP-Impb inh 1.9, ALR H2O2 inh 8, Calb FLC 10, B2AR ag -5, HNF4A DNA FP -0.6 and Vif TR-FRET -8%.
CC1CC(O)(CC(O)(c2ccccc2)c2ccccc2)C(C)CN1C (stereo not given) was read as LANA-H2A inh -0.6, RanGTP-Impb inh 1.1, ALR H2O2 inh 9, Calb FLC -25, B2AR ag 0, HNF4A DNA FP 0.2 and Vif TR-FRET -7%.
`O=C1CC(c2ccccc2)c2ccc(O)cc2O1` (stereo not given) gave LANA-H2A inh -0.7, RanGTP-Impb inh 3.5, ALR H2O2 inh 27, Calb FLC -2, B2AR ag 0, HNF4A DNA FP -1.3 and Vif TR-FRET 3%.
For Cc1ccc(NS(=O)(=O)c2ccc3oc(=O)ccc3c2)cc1Cl the results were LANA-H2A inh 4.8, RanGTP-Impb inh -0.3, ALR H2O2 inh 4, Calb FLC 52, B2AR ag -2, HNF4A DNA FP 3.2 and Vif TR-FRET 4%.
`COc1ccccc1NC(=O)Cn1cnc2c(cnn2-c2ccccc2)c1=O` gave LANA-H2A inh 0.7, RanGTP-Impb inh 3.2, ALR H2O2 inh 0, Calb FLC 91*, B2AR ag -1, HNF4A DNA FP 2.3 and Vif TR-FRET inconclusive.
CCOC(=O)c1ccccc1-n1c(C)cc(C2N=C(N)Nc3nc4ccccc4n32)c1C (stereo not given) was read as LANA-H2A inh -3.6, RanGTP-Impb inh -0.8, ALR H2O2 inh -1, Calb FLC -13, B2AR ag 16, HNF4A DNA FP -1.9 and Vif TR-FRET 5%.
For CC(C)(C)C1CCC(C(=O)OCC(=O)N2CCOCC2)CC1 (stereo not given) the results were LANA-H2A inh 5.0, RanGTP-Impb inh -0.5, ALR H2O2 inh 1, Calb FLC -3, B2AR ag 1, HNF4A DNA FP 2.4 and Vif TR-FRET 21%.
`COC(=O)c1c(NC(=O)Cc2cccs2)sc(C(=O)NC2CCCCC2)c1C` gave LANA-H2A inh -0.6, RanGTP-Impb inh 3.9, ALR H2O2 inh 1, Calb FLC 0, B2AR ag -2 and HNF4A DNA FP 0.8.
`CCN1CCN(c2oc(COc3ccc(Cl)cc3)nc2C#N)CC1` gave LANA-H2A inh -2.1, RanGTP-Impb inh 3.7, ALR H2O2 inh -4, Calb FLC 1, B2AR ag 9, HNF4A DNA FP -1.8 and Vif TR-FRET 17%.
O=C(Cc1cccc(C(F)(F)F)c1)NCC(=O)Nc1cc(Cl)ccc1Cl was read as LANA-H2A inh -8.8, RanGTP-Impb inh -4.9, ALR H2O2 inh -2, Calb FLC -2, B2AR ag -12 and HNF4A DNA FP 1.8.
CCOc1ccc(NC(=O)NC(C)CC)cc1 (stereo not given) was read as LANA-H2A inh 0.8, RanGTP-Impb inh -3.2, ALR H2O2 inh -1, Calb FLC -4, B2AR ag 2, HNF4A DNA FP 4.2 and Vif TR-FRET 4%.
Cc1ccc(C(C(=O)NC2CCCC2)N(C(=O)c2csnn2)C2CCCC2)o1 (stereo not given) was read as LANA-H2A inh -0.9, RanGTP-Impb inh -2.1, ALR H2O2 inh -5, Calb FLC 6, B2AR ag 9, HNF4A DNA FP 0.4 and Vif TR-FRET 8%.
`N#Cc1cncc(-c2ccc3c(c2)OCCOCCOCCOCCOCCO3)n1` gave LANA-H2A inh -1.4, RanGTP-Impb inh 0.0, ALR H2O2 inh -4, Calb FLC 14, B2AR ag 8, HNF4A DNA FP 2.7 and Vif TR-FRET 1%.
For COC(=O)CCCNC(=O)CC1C(=O)NCCN1Cc1ccoc1 (stereo not given) the results were LANA-H2A inh -2.3, RanGTP-Impb inh -0.6, ALR H2O2 inh -4, Calb FLC 7, B2AR ag 4, HNF4A DNA FP 1.1 and Vif TR-FRET -5%.
`COc1ccc2cc(S(=O)(=O)NCc3cccnc3)ccc2c1` gave LANA-H2A inh 0.4, RanGTP-Impb inh -2.0, ALR H2O2 inh -22, Calb FLC -5, B2AR ag 1 and HNF4A DNA FP -1.0.
For CC(=O)c1ccc(OC(=O)Cc2cccc3ccccc23)cc1 the results were LANA-H2A inh -2.0, RanGTP-Impb inh 5.5, Calb FLC 0, B2AR ag -1 and HNF4A DNA FP -1.7.
Screening Cc1c(O)ccc(NS(=O)(=O)c2ccccc2)c1C returned LANA-H2A inh 1.2, RanGTP-Impb inh 3.5, ALR H2O2 inh 99*, Calb FLC 14, B2AR ag 3, HNF4A DNA FP 2.9 and Vif TR-FRET -5%.
CCCCN(C(=O)c1cc(-c2ccncc2)nc2ccccc12)c1c(N)n(CC(C)C)c(=O)[nH]c1=O was read as LANA-H2A inh -3.9, ALR H2O2 inh -15, B2AR ag 5 and HNF4A DNA FP 5.8.
For N#Cc1nc(COc2ccccc2)oc1N1CCCCC1 the results were LANA-H2A inh 1.3, RanGTP-Impb inh inconclusive, Calb FLC -16, B2AR ag 2, HNF4A DNA FP 2.6 and Vif TR-FRET -2%.
`CCN(C(=O)c1ccc2c(c1)OCO2)C1CCS(=O)(=O)C1` (stereo not given) gave LANA-H2A inh 0.6, RanGTP-Impb inh 1.9, ALR H2O2 inh -3, Calb FLC 14, B2AR ag -6, HNF4A DNA FP -2.6 and Vif TR-FRET 3%.
Screening Nc1cccc(CP(=O)(c2ccccc2)c2ccccc2)c1 returned LANA-H2A inh 1.4, B2AR ag 7, HNF4A DNA FP 1.0 and Vif TR-FRET 5%.
`CC(c1ccccc1)N1CCc2[nH]c(=S)[nH]c(=O)c2C1` (stereo not given) gave LANA-H2A inh 1.0, RanGTP-Impb inh 8.6, ALR H2O2 inh 3, Calb FLC -12, B2AR ag 0 and HNF4A DNA FP -5.0.
`O=C(CCS(=O)(=O)Cc1ccccc1)Nc1nncs1` gave LANA-H2A inh 0.5, RanGTP-Impb inh 3.6, ALR H2O2 inh -6, Calb FLC 25, B2AR ag 6 and HNF4A DNA FP -1.3.
COc1cccc(CNC(=O)c2ccc(CS(=O)Cc3ccc(C)cc3)o2)c1 (stereo not given) was read as LANA-H2A inh 5.5, RanGTP-Impb inh inconclusive, ALR H2O2 inh -8, Calb FLC 10, B2AR ag 4, HNF4A DNA FP 1.9 and Vif TR-FRET 0%.
For Cc1ccc(OCCC(=O)Nc2ccc(C)c(S(=O)(=O)N3CCOCC3)c2)cc1 the results were LANA-H2A inh -2.9, ALR H2O2 inh -4, B2AR ag -2 and HNF4A DNA FP 0.8.

A portion from the list above, as a working copy:
COc1cccc(CNC(=O)c2ccc(CS(=O)Cc3ccc(C)cc3)o2)c1 (stereo not given) was read as LANA-H2A inh 5.5, RanGTP-Impb inh inconclusive, ALR H2O2 inh -8, Calb FLC 10, B2AR ag 4, HNF4A DNA FP 1.9 and Vif TR-FRET 0%.
For Cc1ccc(OCCC(=O)Nc2ccc(C)c(S(=O)(=O)N3CCOCC3)c2)cc1 the results were LANA-H2A inh -2.9, ALR H2O2 inh -4, B2AR ag -2 and HNF4A DNA FP 0.8.

Molecules shown so far that have two or more sulfur atoms, in the order listed:
`COC(=O)c1c(NC(=O)Cc2cccs2)sc(C(=O)NC2CCCCC2)c1C` gave LANA-H2A inh -0.6, RanGTP-Impb inh 3.9, ALR H2O2 inh 1, Calb FLC 0, B2AR ag -2 and HNF4A DNA FP 0.8.
`O=C(CCS(=O)(=O)Cc1ccccc1)Nc1nncs1` gave LANA-H2A inh 0.5, RanGTP-Impb inh 3.6, ALR H2O2 inh -6, Calb FLC 25, B2AR ag 6 and HNF4A DNA FP -1.3.

The listing continues:
Screening CCN(CC(=O)Nc1ccc2c(c1)OCCO2)C(=O)c1cc(Cl)nc2ccccc12 returned LANA-H2A inh -2.4, ALR H2O2 inh 1, B2AR ag 4, HNF4A DNA FP 0.5 and Vif TR-FRET 0%.
Cc1c(OCC(=O)N2C[C@H]3C[C@@H](C2)c2cccc(=O)n2C3)ccc2c3c(c(=O)oc12)CCC3 was read as LANA-H2A inh -3.7, RanGTP-Impb inh 4.5, ALR H2O2 inh 0, Calb FLC 2, B2AR ag -4 and HNF4A DNA FP 1.9.
For Cc1cccn2c(=O)c(C=O)c(Nc3ccc(S(N)(=O)=O)cc3)nc12 the results were LANA-H2A inh -1.3, RanGTP-Impb inh -0.5, ALR H2O2 inh -15, Calb FLC -5, B2AR ag 0, HNF4A DNA FP -2.3 and Vif TR-FRET -2%.
CC(=O)N1CC(C)Oc2ccc(S(=O)(=O)NC(CC(=O)O)c3ccc(C)cc3C)cc21 (stereo not given) was read as LANA-H2A inh -7.7, RanGTP-Impb inh 1.3, ALR H2O2 inh -4, Calb FLC 14, B2AR ag 0 and HNF4A DNA FP 0.1.
